Screening data as filed in PubChem BioAssay.
RGS16-Gao = RGS16-Galphao interaction regulator (human). actives 0.38% (n = 220,000). bead-based flow cytometry RGS16-Galphao binding, fluorescence; actives lie on both sides. binding response (% of control), % at 10 µM. AID 1441. O15492+P09471;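 active means below 25% or above 175%, edge rows of some plates excepted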;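 further: Galphao activated by GDP with aluminum fluoride before binding; 100% = wells without compound and 0% = beads without RGS; some results beyond the cut were filed as inactive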
Target sequence (O15492 whole entry, looked up): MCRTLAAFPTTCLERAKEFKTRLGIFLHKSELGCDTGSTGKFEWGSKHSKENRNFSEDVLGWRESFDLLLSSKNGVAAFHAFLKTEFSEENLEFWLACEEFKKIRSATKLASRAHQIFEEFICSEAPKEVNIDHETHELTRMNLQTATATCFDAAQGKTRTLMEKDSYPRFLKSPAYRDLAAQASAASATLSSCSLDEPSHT
Target sequence (P09471 whole entry, looked up): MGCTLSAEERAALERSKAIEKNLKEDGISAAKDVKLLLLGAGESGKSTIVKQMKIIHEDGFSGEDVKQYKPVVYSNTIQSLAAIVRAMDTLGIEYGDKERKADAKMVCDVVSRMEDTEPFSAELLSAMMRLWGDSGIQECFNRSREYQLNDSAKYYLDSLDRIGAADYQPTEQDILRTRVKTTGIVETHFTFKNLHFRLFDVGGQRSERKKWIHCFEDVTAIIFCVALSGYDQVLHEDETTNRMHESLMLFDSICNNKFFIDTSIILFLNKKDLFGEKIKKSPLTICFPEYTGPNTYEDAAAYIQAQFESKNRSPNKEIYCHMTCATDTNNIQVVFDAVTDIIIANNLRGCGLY
GALR2 ag = agonists of human galanin receptor 2 (GALR2). GALR2-expressing cells, agonist activation read-out. O43603. actives 0.48% (n = 140,000). activation, %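 (tested at 5 µM)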;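 active means above mean plus 3 SD of all compounds, about 5% in these data, not always enough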;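 further: 0% = vehicle buffer wells and 100% = reference agonist at full effect; tested in CHO reporter cells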
Target sequence (O43603 whole entry, looked up): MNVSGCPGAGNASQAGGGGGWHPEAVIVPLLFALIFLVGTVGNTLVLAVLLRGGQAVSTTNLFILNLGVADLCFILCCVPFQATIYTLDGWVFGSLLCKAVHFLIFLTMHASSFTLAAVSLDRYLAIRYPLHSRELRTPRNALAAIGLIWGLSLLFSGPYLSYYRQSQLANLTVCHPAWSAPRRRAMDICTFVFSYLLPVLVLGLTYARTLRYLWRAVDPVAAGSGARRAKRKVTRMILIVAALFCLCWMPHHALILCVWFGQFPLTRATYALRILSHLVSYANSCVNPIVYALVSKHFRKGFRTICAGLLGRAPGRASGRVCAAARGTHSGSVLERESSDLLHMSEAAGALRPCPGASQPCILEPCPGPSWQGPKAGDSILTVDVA
HSV replic up = HSV replication enhancement. HSV replication augmentation in cells, fold increase. maximum fold increase. actives 0.005% (n = 220,000);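 active means peak rise of 1.5-fold or more in the series; tested in PC3 cells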;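 further: first round at 10 µM; read as green reporter fluorescence; hits show the peak of a series up to 25 µM; 1 = signal of infected wells without compound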
PKD1 kinase inh = PKD1 (human) kinase inhibition | Q15139 | AID 797 | PKD1 kinase fluorescence polarization assay | actives 0.056% (n = 200,000) | inhibition, %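 (about 10 µM by stock and volumes)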;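 active means inhibition of 50% or more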;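 further: controls were vehicle for no effect and a reference inhibitor for full effect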
Insulin prom inh = TRM-6 insulin promoter activity inhibition. TRM-6 cells (human fetal islet line), insulin promoter-eGFP reporter, imaging; reporter expression induced with tamoxifen. inhibition, % at 2 µM. actives 0.9% (n = 130,000);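 active means inhibition above the mean plus 3 SD, with well images judged a real hit on visual review, cut at about 60% in these data, passing the limit was not always enough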
Insulin prom inh cell count = second read-out of Insulin prom inh, no call of its own (marks repeat the call); normalized cell count, %; measured here: cell count, toxicity; reference of the scale not given here;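 cells exposed to compound for 48 h; stained nuclei by imaging scaled within each plate; lower means fewer cells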
HSV replic up primary fold = further read-out of HSV replic up, marked with its call; fold increase; compound at 10 µM; measured here: primary screen fold increase 10 uM; tested in PC3 cells;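 GFP signal in the first replicate; 1 = infected wells without compound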
Numbers without * were called inactive; i = inactive; x = not tested or not shown.

SMILES	RGS16-Gao	GALR2 ag	HSV replic up	HSV replic up primary fold	PKD1 kinase inh	Insulin prom inh	Insulin prom inh cell count
Cc1c(C(=O)NCC2COc3ccccc3O2)oc2ccc(S(=O)(=O)N(C)C3CCCCC3)cc12 (configuration not stated)	129	-2.0	i	0.8	-6	23	100
O=C(O)c1ccc(CSc2nc3ccc(N4C(=O)C5C6C=CC(C6)C5C4=O)cc3s2)cc1 (configuration not stated)	101	-1.2	i	0.95	-14	-18	117
O=C(Nc1ccc([N+](=O)[O-])cc1)Nc1ccc2[nH]c(=O)[nH]c2c1	91	x	i	1.1	-3	x	x
O=C(CNC(=O)c1ccc(S(=O)(=O)N2CCCC2)cc1)N/N=C/c1ccco1	100	x	i	1	-8	19	125
COCCn1ccc(O)c(Cc2ccccc2)c1=O	105	-0.6	i	0.97	5	-11	142
Nc1cc(-c2ccccc2)nn1S(=O)(=O)c1ccc(Br)cc1	97	-2.1	i	0.98	-11	x	x
Cc1ccccc1NC(=O)CC(O)(C(F)(F)F)C(F)(F)F	94	-1.0	i	0.83	1	54	91
Nc1ccccc1C(=O)NCc1ccc(Cl)cc1	108	-1.5	i	0.93	-9	25	87
Cc1cs/c(=N\N=C\c2ccccc2)n1Cc1ccco1	102	-2.1	i	0.94	8	x	x
O=C(CSc1cccc[n+]1[O-])Nc1cc(S(=O)(=O)N2CCOCC2)ccc1Cl	118	-0.1	i	1	-10	14	115
O=[N+]([O-])c1cc(-c2cnc3ccccc3n2)ccc1Oc1ccc(Br)cc1	104	-0.5	i	0.89	-14	43	105
Cc1ccc(N=Cc2sccc2C)cc1C	105	-2.2	i	0.93	-7	19	74
CC1CC=C(c2ccccc2)C(=S)N1 (configuration not stated)	95	x	i	1.1	x	x	x
S=C1NCCOCCOCCOCCOCCNC(=S)NCCOCCOCCOCCOCCN1	68	-0.8	i	0.87	3	38	109
Cc1nn2c(N3CCN(C(=O)c4ccco4)CC3)cc(C(C)(C)C)nc2c1-c1ccccc1	104	-1.8	i	0.7	-44	40	125
CCOc1ccccc1N(CC(=O)NC(C)(C)C)C(=O)c1ccc(CN2CCOCC2)o1	103	-3.4	i	1.2	-1	x	x
CCOC(=O)c1ccc(N2C(=O)CC(N3CCC(Nc4ccc(F)cc4)CC3)C2=O)cc1 (configuration not stated)	101	-0.8	i	0.82	4	-23	58
O=C(CNc1ccc(F)cc1)N/N=C/C1CC=CCC1 (configuration not stated)	123	x	i	0.87	-1	x	x
CC(C)Cc1c(O)nc(SCCN2CCOCC2)[nH]c1=O	112	-1.6	i	0.73	3	0	89
C=CCNC(=O)Cn1nc(-c2ccccc2)ccc1=O	105	-0.8	i	0.88	-4	x	x
C/C(CCc1ccco1)=N\NC(=O)CNc1cccc2ccccc12	98	x	i	0.98	3	x	x
COc1cccc(-n2c(N)c(C#N)c3ccc([N+](=O)[O-])cc3c2=O)c1	104	-0.2	i	0.97	5	x	x
CCOC(=O)C1=C(c2ccccc2)OC(N)=C(C#N)C1c1ccc(Br)s1 (configuration not stated)	104	-0.5	i	0.92	-4	x	x
O=C(N/N=C/c1cccc([N+](=O)[O-])c1)c1cc(-c2ccc3c4c(cccc24)CC3)n[nH]1	100	-1.0	i	0.8	-9	x	x
Cc1ccc(NCC(=O)NNC2=NCCC2)c(C)c1	89	-1.3	i	1	-5	-25	127
The results go on.
SMILES	RGS16-Gao	GALR2 ag	HSV replic up	HSV replic up primary fold	PKD1 kinase inh	Insulin prom inh	Insulin prom inh cell count
CCC(C(=O)c1ccc(O)cc1)c1ccccc1 (configuration not stated)	103	-2.4	i	0.99	5	x	x
O=C(c1cc2ccccc2[nH]1)N1CCOCC1	68	0.4	i	0.97	-2	x	x
Cc1ccccc1NC(=O)c1cccc(NC(=O)CCC(=O)O)c1	98	x	i	0.96	2	-56	101
COC(=O)c1ccc(NC(=O)CC2C(=O)N(c3ccc(C)cc3)C(=O)N2CC(C)C)cc1 (configuration not stated)	104	0.5	i	0.87	-5	0	124
O=C(CNC(=S)NC(=O)c1ccc(Br)o1)c1ccccc1	97	-0.6	x	x	-6	-38	42
O=C(CSc1ccc(F)cc1)N1CCC(c2nc3ccccc3s2)CC1	102	0.2	x	x	-6	x	x
CCOc1cc2[nH]c(=O)n(Cc3ccc(C(=O)NCCCN4CCC(C)CC4)cc3)c(=O)c2cc1OCC	96	x	i	0.69	2	x	x
Cc1ccc(/C=C/C(=O)Nc2nc3ccccc3[nH]2)cc1	98	2.2	i	0.89	-3	-22	117
CCc1nc(OCCN(C)C)c2oc3ccccc3c2n1	77	-0.9	i	1.1	6	x	x
COc1ccc(N2CCN(C(c3cccs3)c3nnnn3C3CCCC3)CC2)cc1 (configuration not stated)	108	-2.5	i	1.1	-7	7	112
O=C(c1nc(-c2ccccc2)n(-c2ccccc2)n1)N1CCCCCC1	104	-2.7	i	0.91	-4	x	x
O=C(CCN1CCCCCC1)Nc1ccc(F)cc1	100	-1.7	i	0.93	-7	9	98
CC(C)C(=O)NC(=S)Nc1ccccc1N1CCN(C(=O)c2ccc(Cl)cc2)CC1	102	x	i	0.99	-7	x	x
CCC(C)NC(=O)C1CCN(S(=O)(=O)c2cc([N+](=O)[O-])ccc2Cl)CC1 (configuration not stated)	108	x	i	1.2	x	x	x
O=S(=O)(NCC(c1ccco1)N1CCN(c2ccc(F)cc2)CC1)c1ccc(F)cc1 (configuration not stated)	101	0.2	i	0.98	-3	-48	107
CC(C)Cc1nnc(NS(C)(=O)=O)s1	109	-3.6	i	0.93	-8	-2	102
COc1ccc(/C=C2/NC(=O)N(Cc3ccccc3F)C2=O)cc1OC	105	x	i	0.88	-3	-14	71
Cc1ccc2c(CN3CCC(C)CC3)cc(=O)oc2c1	112	-2.0	i	1	3	50	61
O=C(CSc1nnc(C2CC2)n1Cc1ccccc1)NCc1ccccc1	112	-0.6	i	1	-9	-3	205
CCN1CCN(Cc2ccc(NC(=O)c3cc(NC(=O)c4cncc(-c5ccc(C#N)cc5)c4)cc(OC)c3)cc2C(F)(F)F)CC1	102	x	i	0.78	x	x	x
CCOC(=O)c1cc2sccc2n1CC(=O)N1CCN(C(=O)c2ccco2)CC1	100	-3.0	i	0.99	-19	-38	97
CN(C)c1c([N+](=O)[O-])ncn1C	106	0.7	i	0.83	6	9	57
O=C(O)c1cccc(NC(=S)N/N=C/c2ccccc2OCc2ccc(Br)cc2)c1	101	x	i	1	1	-21	84
Cc1ccc(NC(=O)CN2C(=O)S/C(=C/c3ccc(-c4cc(C(=O)O)ccc4C)o3)C2=O)cc1C	104	-1.4	i	0.83	4	x	x
CSCCC(NC(N)=O)C(=O)Nc1ccc(C)cc1 (configuration not stated)	106	x	i	0.93	-4	-19	104
Later entries.
SMILES	RGS16-Gao	GALR2 ag	HSV replic up	HSV replic up primary fold	PKD1 kinase inh	Insulin prom inh	Insulin prom inh cell count
CSc1sc(C(=O)O)c2c1C(=O)CCC2	102	-1.5	i	0.98	-6	43	131
CC(C)c1ccc(C(=O)NC2=NCCS2)cc1	103	-0.7	i	1.1	-6	18	81
CCOc1cc(N2CCOCC2)c(OCC)cc1NC(=O)c1ccc(NC(C)=O)cc1	102	x	i	0.96	7	7	162
COC(=O)C(NNc1ccc(F)cc1)(NC(=O)c1ccccc1)C(F)(F)F (configuration not stated)	103	-1.2	i	1.1	-6	-45	91
COc1ccc2c(C)cc(SCC(=O)N(C)C3CCS(=O)(=O)C3)nc2c1 (configuration not stated)	95	x	i	1.1	-3	x	x
CC[N+](C)(CC)CC(O)COCC1COc2ccccc2O1 (configuration not stated)	112	-0.5	i	1.3	-10	x	x
Cc1ccc2nc(N=C(N)N)nc(C)c2c1	103	x	i	0.81	2	x	x
Cc1ccc(-c2cc(Cc3ccc(N(C)C)cc3)c(=O)[nH]n2)cc1	87	x	i	1.2	x	x	x
O=C(O)C1CC(=O)N(CCc2c[nH]c3ccccc23)C1 (configuration not stated)	101	-1.9	i	1.1	1	39	104
CC(=O)Nc1ccc(Cc2ccc3[nH]c(=O)cc(C)c3c2)cc1	119	x	i	0.98	x	x	x
CCOC(=O)c1ccc(N2N=C(C)/C(=C/C=C/c3ccco3)C2=O)cc1	104	-1.5	i	0.9	-3	43	124
COc1ccc(OCC(=O)NCCc2ccc(S(N)(=O)=O)cc2)cc1	104	-1.2	i	0.83	-1	-35	118
COCCOCCn1c(CCCO)nc2ccccc21	102	-3.2	i	0.94	-13	-35	288
O=C1CC(c2ccc(F)cc2)CC(O)=C1C1NCCc2ccccc21 (configuration not stated)	99	-2.6	i	0.96	2	10	142
Cc1ccc(/C=N/NC(=O)C(C)NC(=O)c2ccccc2)cc1 (configuration not stated)	101	x	i	1.1	9	5	97
S=c1[nH]nc(Cn2cnc3ccccc32)n1-c1ccccc1Cl	94	x	i	0.91	x	x	x
O=[N+]([O-])c1cccc(CSc2nnc3ccccn23)c1	104	x	i	0.97	-4	x	x
CC(C)CCn1c(N2CCc3ccccc3C2)nc2c1c(=O)[nH]c(=O)n2C	82	x	i	0.98	3	-12	109
CC1CCN(CCCOc2ccc(Br)cc2Cl)CC1	106	x	i	0.84	-4	x	x
CC(C)C(=O)NC(=S)Nc1sc2c(c1C(N)=O)CCCC2	99	-1.0	i	0.83	-9	-23	90
CC(C)Cc1nc2oc3c(NCc4cccnc4)ncnc3c2c2c1CCC2	144	0.3	i	0.81	-13	x	x
O=c1cc(Nc2cccc(Br)c2)[nH]c(=O)[nH]1	112	x	i	0.93	-3	-22	118
Cc1c(Cl)cccc1NC(=S)NC(=O)CCN1C(=O)c2ccccc2C1=O	61	-1.6	i	0.91	3	-43	52
O=C(CNS(=O)(=O)c1ccc(Br)s1)Nc1ccc2c(c1)OCCO2	52	-4.5	i	0.98	-3	x	x
CC1CCC2C(=O)N(c3cccc(OS(=O)(=O)c4ccccc4)c3)C(=O)C2C1 (configuration not stated)	99	-1.2	i	1.1	-3	x	x

Quoted from the listing:
For HSV replic up primary fold, CC(C)C(=O)NC(=S)Nc1sc2c(c1C(N)=O)CCCC2 is listed with 0.83
For GALR2 ag, CC[N+](C)(CC)CC(O)COCC1COc2ccccc2O1 (configuration not stated) is listed with -0.5
For HSV replic up primary fold, COCCOCCn1c(CCCO)nc2ccccc21 is listed with 0.94
For RGS16-Gao, S=c1[nH]nc(Cn2cnc3ccccc32)n1-c1ccccc1Cl is listed with 94
For GALR2 ag, O=C1CC(c2ccc(F)cc2)CC(O)=C1C1NCCc2ccccc21 (configuration not stated) is listed with -2.6
For RGS16-Gao, O=C(CNS(=O)(=O)c1ccc(Br)s1)Nc1ccc2c(c1)OCCO2 is listed with 52

Additional entries follow:
SMILES	RGS16-Gao	GALR2 ag	HSV replic up	HSV replic up primary fold	PKD1 kinase inh	Insulin prom inh	Insulin prom inh cell count
O=C(NCCc1ccccc1)C1CCCN(S(=O)(=O)c2cccs2)C1 (configuration not stated)	104	-1.0	i	0.85	-10	x	x
CCc1ccccc1N1CC(C(=O)O)CC1=O (configuration not stated)	102	-1.5	i	0.94	-3	-194	99
Cc1ccc(C(=O)NCCc2ccc(S(N)(=O)=O)cc2)cc1[N+](=O)[O-]	115	x	i	1.1	-5	-43	56
Cc1nc2ccccc2n1CC(O)COc1ccccc1Cl (configuration not stated)	100	x	i	0.95	-7	x	x
Cn1c(=O)c2c(-c3ccc(C(C)(C)C)cc3)n(N3CCOCC3)cc2n(C)c1=O	70	-0.1	i	0.86	2	-9	81
Cc1ccc(-n2c(=O)c(C#N)cc3c(=O)n4cccc(C)c4nc32)cc1	102	0.2	i	0.78	1	30	94
CCCc1cc(C(=O)NCc2ccc(OC)cc2)no1	105	-1.2	i	0.76	-7	x	x
COc1cccc(/C=C2\N=C(C3CCCCC3)OC2=O)c1OC	100	x	i	0.97	10	x	x
O=C(NCc1nnc(SCC(=O)N2CCCC2)o1)c1ccccc1F	101	-2.5	i	0.98	0	-4	99
COc1cccc2[nH]c3c(N4CCN(Cc5ccc6c(c5)OCO6)CC4)ncnc3c12	113	0.8	x	x	1	8	159
Nc1ccc2oc(-c3cccc4ccccc34)nc2c1	81	-1.9	i	0.99	-8	64	106

A section from the list above, for reference:
SMILES	RGS16-Gao	GALR2 ag	HSV replic up	HSV replic up primary fold	PKD1 kinase inh	Insulin prom inh	Insulin prom inh cell count
CCCc1cc(C(=O)NCc2ccc(OC)cc2)no1	105	-1.2	i	0.76	-7	x	x
COc1cccc(/C=C2\N=C(C3CCCCC3)OC2=O)c1OC	100	x	i	0.97	10	x	x
O=C(NCc1nnc(SCC(=O)N2CCCC2)o1)c1ccccc1F	101	-2.5	i	0.98	0	-4	99
COc1cccc2[nH]c3c(N4CCN(Cc5ccc6c(c5)OCO6)CC4)ncnc3c12	113	0.8	x	x	1	8	159
Nc1ccc2oc(-c3cccc4ccccc34)nc2c1	81	-1.9	i	0.99	-8	64	106
